High-throughput results as filed in PubChem BioAssay.
GALR2 ag: GALR2 receptor agonists, primary screen, cell-based; 140,000 compounds, 0.48% hits; Galanin receptor type 2 (Homo sapiens), O43603; GALR2-expressing cells, agonist activation read-out; activation, %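 (tested at 5 µM)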;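 active means above mean plus 3 SD of all compounds, about 5% in these data, not always enough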;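 further: 0% = vehicle buffer wells and 100% = reference agonist at full effect; tested in CHO reporter cells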
PKD1 inh: inhibitors of human PKD1 kinase, biochemical, fluorescence polarization. Serine/threonine-protein kinase D1 (Homo sapiens), Q15139. PKD1 kinase fluorescence polarization assay. inhibition, %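 (about 10 µM by stock and volumes)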. 200,000 compounds, 0.056% hits. AID 797, 2007;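 active means inhibition of 50% or more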;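 further: controls were vehicle for no effect and a reference inhibitor for full effect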
Target sequence (Q15139 whole entry, looked up): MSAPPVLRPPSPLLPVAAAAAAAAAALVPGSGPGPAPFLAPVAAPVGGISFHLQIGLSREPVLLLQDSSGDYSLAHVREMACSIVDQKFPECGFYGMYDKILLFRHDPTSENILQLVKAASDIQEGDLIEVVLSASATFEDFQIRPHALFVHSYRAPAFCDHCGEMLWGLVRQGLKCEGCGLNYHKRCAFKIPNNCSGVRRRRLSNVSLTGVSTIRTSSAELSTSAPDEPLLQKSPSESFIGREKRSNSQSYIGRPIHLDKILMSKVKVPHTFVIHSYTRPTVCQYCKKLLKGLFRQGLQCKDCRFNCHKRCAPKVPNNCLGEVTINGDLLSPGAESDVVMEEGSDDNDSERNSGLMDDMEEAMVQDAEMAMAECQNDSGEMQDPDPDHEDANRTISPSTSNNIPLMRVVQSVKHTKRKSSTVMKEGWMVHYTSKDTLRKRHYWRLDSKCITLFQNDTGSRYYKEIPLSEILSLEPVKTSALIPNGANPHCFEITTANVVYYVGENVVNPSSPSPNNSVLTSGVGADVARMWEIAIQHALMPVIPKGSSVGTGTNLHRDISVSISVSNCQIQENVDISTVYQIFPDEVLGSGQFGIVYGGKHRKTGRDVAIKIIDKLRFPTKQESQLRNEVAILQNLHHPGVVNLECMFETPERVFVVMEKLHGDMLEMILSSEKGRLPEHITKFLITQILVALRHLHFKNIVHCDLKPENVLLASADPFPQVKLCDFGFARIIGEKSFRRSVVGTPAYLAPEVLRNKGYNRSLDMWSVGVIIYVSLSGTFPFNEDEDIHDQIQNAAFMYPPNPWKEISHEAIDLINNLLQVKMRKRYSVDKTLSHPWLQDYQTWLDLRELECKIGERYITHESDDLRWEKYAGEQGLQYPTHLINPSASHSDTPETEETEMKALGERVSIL
INS promoter inh: inhibitors of insulin promoter-driven GFP, primary screen, imaging, TRM-6 cells (human fetal islet line), eGFP reporter, cell count | 130,000 compounds, 0.9% hits | reporter expression induced with tamoxifen | inhibition, % at 2 µM;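 active means inhibition above the mean plus 3 SD, with well images judged a real hit on visual review, cut at about 60% in these data, passing the limit was not always enough; inconclusive means inhibition over the cutoff but images rejected on review; inactive means inhibition not above the cutoff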
RGS16-Gao: modulators of RGS16 binding to Galphao, primary screen, biochemical, human proteins, multiplexed bead flow cytometry | Regulator of G-protein signaling 16 (Homo sapiens) + Guanine nucleotide-binding protein … | bead-based flow cytometry RGS16-Galphao binding, fluorescence; actives lie on both sides | binding response (% of control), % at 10 µM | 220,000 compounds, 0.38% hits;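 active means below 25% or above 175%, edge rows of some plates excepted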;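 further: Galphao activated by GDP with aluminum fluoride before binding; 100% = wells without compound and 0% = beads without RGS; some results beyond the cut were filed as inactive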
HSV replic up: enhancers of HSV replication in host cells, fold increase, host cell viability. maximum fold increase. 220,000 compounds, 0.005% hits. HSV replication augmentation in cells. AID 1956, 2009;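 active means peak rise of 1.5-fold or more in the series; inconclusive means self-fluorescent or not available for retest; tested in PC3 cells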;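 further: first round at 10 µM; read as green reporter fluorescence; hits show the peak of a series up to 25 µM; 1 = signal of infected wells without compound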
INS promoter inh cell count: further read-out of INS promoter inh, marked with its call; normalized cell count, %; measured here: cell count, toxicity; reference of the scale not given here;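 cells exposed to compound for 48 h; stained nuclei by imaging scaled within each plate; lower means fewer cells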
HSV replic up primary fold: recorded beside HSV replic up, whose call it bears; fold increase; compound at 10 µM; measured here: primary screen fold increase 10 uM; tested in PC3 cells;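 GFP signal in the first replicate; 1 = infected wells without compound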
An asterisk follows results filed as active; i = inactive; ? = inconclusive; nt = no result given. An unsorted share of the library; about 1.2% have a hit in one of these screens.

SMILES | GALR2 ag | PKD1 inh | INS promoter inh | INS promoter inh cell count | RGS16-Gao | HSV replic up | HSV replic up primary fold
CCCN(CCC)C(=O)Nc1ccc(F)cc1F | nt | nt | nt | nt | 113 | i | 1.1
O=S(=O)(c1ccccc1)c1nc(-c2ccccc2F)oc1NCc1cccnc1 | nt | -7 | -21 | 96 | 98 | i | 0.89
Cc1ccc(/C=N/NC(=O)c2ccccn2)o1 | -0.9 | 18 | -12 | 109 | 100 | i | 0.95
COC(=O)c1ccccc1NC(=O)C12CC3CC(C1)CC(n1cnc(Cl)n1)(C3)C2 | -2.0 | -8 | -33 | 76 | 107 | i | 0.81
Cc1nnn(C23CC4CC(CC(CC(=O)Nc5ccc(C)c(Cl)c5)(C4)C2)C3)n1 | -0.7 | -9 | -7 | 90 | 103 | i | 0.96
Cc1ccccc1N(C(=O)Cn1nnc2ccccc21)C(C(=O)NCc1ccco1)c1ccncc1 (stereo not drawn) | -0.8 | 0 | -39 | 86 | 112 | i | 0.87
O=C1CCC/C(=N/NC(=O)c2ccc(CN3c4cccc5cccc(c45)S3(=O)=O)cc2)C1 | -2.2 | -8 | 14 | 91 | 48 | i | 1.1
CC(=O)c1cccc(S(=O)(=O)N(CCCO)Cc2cc3ccc(C)cc3[nH]c2=O)c1 | -1.2 | 0 | -29 | 106 | 102 | i | 0.8
Cc1cc(NC(=O)COC(=O)COc2cccc3c2OC(C)(C)C3)no1 | -0.6 | 4 | nt | nt | 98 | i | 0.84
CC(c1cccs1)N(Cc1ccco1)C(=S)Nc1ccc(F)c(Cl)c1 (stereo not drawn) | nt | -2 | -22 | 115 | 104 | i | 1.1

Overlap with the part before: two compounds, then new ones.
SMILES | GALR2 ag | PKD1 inh | INS promoter inh | INS promoter inh cell count | RGS16-Gao | HSV replic up | HSV replic up primary fold
Cc1cc(NC(=O)COC(=O)COc2cccc3c2OC(C)(C)C3)no1 | -0.6 | 4 | nt | nt | 98 | i | 0.84
CC(c1cccs1)N(Cc1ccco1)C(=S)Nc1ccc(F)c(Cl)c1 (stereo not drawn) | nt | -2 | -22 | 115 | 104 | i | 1.1
Cc1nc(N/N=C/c2ccccc2)nc(N(C)c2ccccc2)c1[N+](=O)[O-] | -2.4 | 6 | nt | nt | 98 | i | 0.93
COc1ccc(C/C(N)=N/OC(=O)c2ccco2)cc1OC | nt | 7 | -71 | 108 | 104 | i | 1
Cc1ccc(C)c(S(=O)(=O)N/N=C/c2ccc(N3CCOCC3)cc2)c1 | nt | nt | nt | nt | 104 | i | 0.85
COCc1ccc(CN2CCC(CO)(CC3CCCCO3)CC2)o1 (stereo not drawn) | nt | 8 | nt | nt | 104 | i | 0.96
CCOC(=O)c1c(C)oc2c1c(C=NCCO)c(O)c1ccccc12 | nt | 2 | nt | nt | 106 | ? | nt
O=C(C1CCCN1C(=O)c1cccs1)N1CCN(Cc2ccc3c(c2)OCO3)CC1 (stereo not drawn) | -0.2 | 7 | nt | nt | 112 | nt | nt
O=C(c1ccccn1)C1CCCN(Cc2cn[nH]c2-c2cc3ccccc3o2)C1 (stereo not drawn) | nt | -4 | nt | nt | 84 | i | 0.99
O=C(COC(=O)c1ccc(Br)o1)NCc1ccco1 | -2.3 | -9 | nt | nt | nt | i | 0.96
O=C(O)c1ccccc1SC1CC(=O)N(C2CCCCC2)C1=O (stereo not drawn) | -1.4 | 1 | nt | nt | 103 | i | 0.68
Fc1ccc(NC(=S)Nc2ccc(Br)cc2)cc1 | 0.2 | 4 | -27 | 195 | 104 | i | 0.92
O=C(NCC1CCCO1)c1ccccc1-c1nc(-c2ccc(Cl)cc2)no1 (stereo not drawn) | -2.1 | 1 | -35 | 96 | 106 | i | 0.86
Cc1c2cnn(-c3ccccc3)c(=O)c2c(C)n1CCCC(=O)N1CCN(C2CCCCC2)CC1 | nt | nt | nt | nt | 98 | i | 0.87
CCC1(C(=O)c2ccccc2)C(c2ccc([N+](=O)[O-])cc2)C1(C(=O)OC)C(=O)OC (stereo not drawn) | -0.1 | 11 | nt | nt | 157 | i | 0.97
Cc1cccc(/C=C2/S/C(=N/N=C3\CC4CCC3(C)C4(C)C)NC2=O)c1 (stereo not drawn) | -1.4 | -9 | nt | nt | 100 | i | 0.69
Cc1ccc(C(=O)O)cc1NC(=O)C1CCCN1S(=O)(=O)c1cccc2nsnc12 (stereo not drawn) | -1.1 | -4 | nt | nt | 100 | i | 0.9
CSc1nc(Sc2ccc(Cl)cc2)c2ccccc2n1 | -1.4 | -3 | 6 | 65 | 85 | nt | nt
CCN(CC)CCN1C(=O)C(=O)/C(=C(/O)c2c(C)[nH]c(C(=O)OC)c2C)C1c1ccc(OC)cc1 (stereo not drawn) | -1.3 | 6 | 28 | 124 | 106 | nt | nt
O=C(C1=C[C@@H](c2coc3ccccc3c2=O)C[C@@H](OCc2ccc(CO)cc2)O1)N1CCN(Cc2ccccc2)CC1 | nt | 6 | nt | nt | 101 | i | 1.1
CCC(=O)N/N=C/c1ccc(OS(=O)(=O)c2ccccc2)cc1 | -0.6 | -12 | -14 | 66 | 24 | i | 0.95
COc1ccc(CN(CC2CCC(C(=O)O)CC2)C(=S)Nc2cc(C)cc(C)c2)cc1 (stereo not drawn) | nt | -3 | nt | nt | 89 | i | 1.1
CCOC(=O)C1CCN(C(=O)CC2C(=O)N(Cc3ccccc3)C(C)c3nc4ccccc4n32)CC1 (stereo not drawn) | -0.2 | -18 | -3 | 90 | 100 | i | 0.98
CN(C)S(=O)(=O)c1cccc(NC(=O)COC(=O)c2ccc3c(c2)OCO3)c1 | -1.3 | -1 | 14 | 116 | 96 | i | 0.99
O=C(NCc1ccco1)C(c1ccc(F)cc1)N(CC1CCCO1)C(=O)Cn1nnc2ccccc21 (stereo not drawn) | -2.1 | -1 | nt | nt | 104 | i | 0.95
Cc1ccc2c(Cl)cc(Cl)c(OCC(=O)O)c2n1 | nt | 3 | -29 | 91 | 104 | i | 0.94
COc1ccc(/C=N/Nc2nc(N3CCCCC3)nc(N3CCCCC3)n2)cc1[N+](=O)[O-] | -2.3 | -5 | 12 | 71 | 117 | i | 0.85
Cn1c(C(=O)O)cnc1Sc1ncc(C(F)(F)F)cc1Cl | nt | -11 | 31 | 72 | 102 | nt | nt
COC(=O)[C@H](CCSC)NC(=O)Nc1ccc(C)c(C)c1 | -2.0 | 5 | nt | nt | 99 | i | 0.87
Cc1cccc(C)c1NC(=S)NC1CCCCC1 | -0.8 | 6 | -12 | 114 | 109 | i | 0.98
CC1=C(C(=O)Nc2ccccc2C)C(c2ccc(C)o2)n2c(s/c(=C/c3ccccc3)c2=O)=N1 (stereo not drawn) | -5.0 | 1 | 77* | 35* | 99 | i | 1.1
CC(C)[C@H](NC(=O)[C@@H]1CSCN1C(=O)OC(C)(C)C)C(=O)NCC1CCC(C(=O)O)CC1 (stereo partly drawn) | -0.7 | -2 | -10 | 51 | 106 | i | 0.95
Nc1cc(N)nc(SCCN2CCCCC2)n1 | -1.5 | -4 | nt | nt | 99 | i | 1
CC(=O)Nc1ccc(Nc2nc(C)c([N+](=O)[O-])c(Nc3ccc(NC(C)=O)cc3)n2)cc1 | 1.9 | -2 | nt | nt | 100 | i | 0.91
O=C(N/N=C1\C2CN3CCN(C2)CC1(c1ccccc1)C3)c1ccc(F)cc1 | -1.5 | -1 | -7 | 141 | 100 | i | 0.89
CC(=O)Nc1nc(C)c(Oc2ccc(C)cc2)c(=O)[nH]1 | nt | nt | nt | nt | 104 | i | 0.99
CCOC(=O)c1cnn(-c2ccc(Cl)cc2)c1C1CCN(C(=O)OC(C)(C)C)CC1 | -2.5 | -7 | -16 | 57 | 103 | i | 0.99
O=c1c2ccccc2nc(SCc2ccccc2)n1Cc1ccco1 | 0.8 | -7 | nt | nt | 98 | i | 1
Nc1c(-c2ccc(Cl)cc2)cnn1-c1cccc([N+](=O)[O-])c1 | -2.6 | -12 | 21 | 98 | 114 | i | 0.82
O=C(Cc1ccccc1)Nc1ccccc1Oc1ccccc1 | -0.2 | -7 | 17 | 108 | 106 | nt | nt
O=C(NC1CCCCCCC1)C1c2ccccc2C(=O)N1Cc1cccs1 (stereo not drawn) | -1.4 | -3 | 0 | 115 | 103 | i | 1.1
CCOC(=O)c1sc(NC(=O)CSc2n[nH]c(C)n2)nc1C | nt | -8 | nt | nt | 102 | i | 0.92
C=CCOC(=O)C1=C(C)NC(C)=C(C(=O)OCC=C)C1c1cccs1 | 0.2 | 9 | nt | nt | 93 | i | 0.8
Cc1cccc(-c2ncc(S(=O)(=O)C(C)(C)C)c(N)n2)c1 | nt | nt | nt | nt | 103 | i | 1
CCOC(=O)/C(=N/Nc1ccc(Cl)cc1)S(=O)(=O)c1ccccc1 | -3.0 | -1 | 43 | 27 | 101 | i | 0.84
CCC1(C)Cc2c(sc3nc4n(c(=O)c23)CCS4)CO1 (stereo not drawn) | 0.8 | -4 | 43 | 139 | 103 | i | 0.9
Cc1cc(C)c2c(=O)n(CC(=O)N3CCC(N4CCCCC4)CC3)sc2n1 | -1.4 | -7 | nt | nt | 64 | i | 0.84
CCOc1ccc(C(C)NC(=O)Cc2ccccc2)cc1OCC (stereo not drawn) | -0.6 | 3 | -8 | 69 | 97 | nt | nt
CCCCCCCN(C(=O)CCl)c1cccc(C)c1 | -1.2 | 4 | -270 | 1 | 99 | i | 0.98
CC(Sc1nc2ccccc2[nH]1)C(=O)O (stereo not drawn) | -1.6 | -6 | 50 | 121 | 106 | i | 0.88
COC(=O)CN1C(=O)S/C(=C/c2cc(C)n(C)c2C)C1=O | -1.1 | -5 | 4 | 101 | 97 | i | 0.76
CCSC1=C(C#N)C(c2ccc3c(c2)OCO3)C2=C(CCCC2=O)N1 (stereo not drawn) | 2.0 | -3 | -25 | 111 | 99 | i | 0.89

One compound at a time (already shown). Values in the order: GALR2 ag	PKD1 inh	INS promoter inh	INS promoter inh cell count	RGS16-Gao	HSV replic up	HSV replic up primary fold
Entry for CCOC(=O)/C(=N/Nc1ccc(Cl)cc1)S(=O)(=O)c1ccccc1 → -3.0	-1	43	27	101	i	0.84
Entry for CCSC1=C(C#N)C(c2ccc3c(c2)OCO3)C2=C(CCCC2=O)N1 (stereo not drawn) → 2.0	-3	-25	111	99	i	0.89
Entry for CCC1(C)Cc2c(sc3nc4n(c(=O)c23)CCS4)CO1 (stereo not drawn) → 0.8	-4	43	139	103	i	0.9

Carrying on.
SMILES | GALR2 ag | PKD1 inh | INS promoter inh | INS promoter inh cell count | RGS16-Gao | HSV replic up | HSV replic up primary fold
O=C(CN1CC(c2ccccc2)CC1=O)OCc1ccccc1F (stereo not drawn) | -1.3 | 3 | -134 | 110 | 57 | i | 1.1
Cc1ccc2nc(-c3ccncc3)cc(C(=O)Nc3ccc(OC(F)F)cc3)c2c1 | nt | 7 | nt | nt | 104 | i | 0.72
O=C1C2C3C=CC(C4CC34)C2C(=O)N1/N=C/c1ccc(-c2ccc(F)cc2[N+](=O)[O-])o1 (stereo not drawn) | -1.4 | 0 | -3 | 76 | 99 | i | 0.99
COCCCNC(=O)CSc1nc2c(sc3ccccc32)c(=O)n1CCCC(=O)NCC1CCCO1 (stereo not drawn) | nt | -2 | 7 | 124 | 103 | i | 1
O=C(CSc1ncnc2nc[nH]c12)Nc1ccccc1C(F)(F)F | -1.5 | -6 | 14 | 126 | 96 | nt | nt
O=S(=O)(Nc1nc2ccccc2nc1NCC1CCCO1)c1ccccc1 (stereo not drawn) | nt | nt | nt | nt | 99 | i | 1.1
Fc1ccc(-c2csc3ncnc(N4CCc5ccccc5C4)c23)cc1 | 0.2 | -6 | 27 | 116 | 105 | i | 0.81
O=C(CNC(=O)C(c1ccccc1)c1ccccc1)N/N=C/c1cccnc1 | nt | nt | nt | nt | 100 | i | 1.3
CC1CN(c2ccc(S(=O)(=O)N3CCCC3)cn2)CC(C)O1 (stereo not drawn) | nt | nt | nt | nt | 100 | i | 0.97
Cc1cccc(/C=N/n2c(-c3cc(-c4ccccc4)n[nH]3)n[nH]c2=S)c1 | 0.5 | 0 | -22 | 96 | 99 | i | 1
Cc1ccc(CNCc2cc3c(C(C)(C)C)nn(-c4ccccc4)c3[nH]c2=O)cc1 | 0.5 | -11 | 29 | 89 | 95 | i | 1.1
COCCNC(=O)COc1cccc(Oc2ccccc2)c1 | -3.4 | 10 | 12 | 147 | 101 | i | 0.96
Cc1ccc(C2(CCNS(=O)(=O)c3ccc(C)cc3)CCOC(C(C)C)C2)cc1 (stereo not drawn) | -2.0 | 1 | nt | nt | 79 | i | 1
